# S aureus helic – S. aureus DNA helicase inhibition; purified S. aureus helicase, fluorescence unwinding assay; about half of the hits fall short of the stated cut; inhibition, %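 (tested at about 80 µM)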; 120,000 compounds, 0.05% hits;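 active = both duplicates at 50% or more, or one of them with a favoured structure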;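 also: 0% = mean of negative control wells and 100% = mean of positive control wells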
# MgrA DNA FP – modulators of Staphylococcus aureus MgrA DNA binding; fluorescence polarization; AID 602314; inhibition, %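 (about 10 µg/mL by stock and volumes)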; 84,000 compounds, 0.13% hits;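 active = above 50% in either of two replicates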;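 also: 0% = protein plus DNA without compound and 100% = DNA alone without protein; higher means less MgrA bound to DNA so lower polarization; one replicate is shown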
# An asterisk follows results filed as active; · = not tested or not shown; & = joins results of further samples.
SMILES,S aureus helic,MgrA DNA FP
C/C(=N\OC(=O)c1ccc(C(F)(F)F)cc1)c1ccn(S(=O)(=O)c2ccccc2)c1,·,-0.6
CC(C)c1ccc(N2CSC(=S)N(c3ccc(C(C)C)cc3)C2)cc1,·,-1.9
CN(C)C(=S)SCN1CCCC1=O,-4.0,·
O=C(Oc1ccc(Cl)c2cccnc12)c1ccco1,1.0,·
CCOC(=O)c1ccc(NC(=O)CC2SC(=Nc3ccc(S(N)(=O)=O)cc3)NC2=O)cc1 (configuration not stated),-28.0,·
COc1ccc(NC(=O)c2cn(-c3ccccc3)nc2-c2cccnc2)cc1,-24.0,2.0
CCSc1nnc(NC(=O)c2ccccc2)s1,-2.0,·
COC(=O)c1cc(OC)c(OC)cc1NC(=O)Nc1ccc(OC(F)(F)F)cc1,·,0.6
Cc1ccc(C(=O)ON=C2CCN(C)CC2)cc1,0.0,1.0
O=C(CSc1ccc(C(F)(F)F)cn1)N1CCc2c([nH]c3ccccc23)C1C(F)(F)F (configuration not stated),·,-0.4
CCC1=Nc2ccc(Br)cc2C(c2ccccc2)N1CC(=O)NN (configuration not stated),-12.0,-0.5
CCOC(=O)n1c(SCC)nc2ccccc21,-5.0,1.4

# Single records, as listed above. Order of values: S aureus helic | MgrA DNA FP
# Results for Cc1ccc(C(=O)ON=C2CCN(C)CC2)cc1 : 0.0 | 1.0
# Results for CCC1=Nc2ccc(Br)cc2C(c2ccccc2)N1CC(=O)NN (configuration not stated) : -12.0 | -0.5
# Results for C/C(=N\OC(=O)c1ccc(C(F)(F)F)cc1)c1ccn(S(=O)(=O)c2ccccc2)c1 : · | -0.6
# Results for O=C(Oc1ccc(Cl)c2cccnc12)c1ccco1 : 1.0 | ·

# At a glance, six of the compounds above.
SMILES,S aureus helic,MgrA DNA FP
CCSc1nnc(NC(=O)c2ccccc2)s1,-2.0,·
COC(=O)c1cc(OC)c(OC)cc1NC(=O)Nc1ccc(OC(F)(F)F)cc1,·,0.6
Cc1ccc(C(=O)ON=C2CCN(C)CC2)cc1,0.0,1.0
O=C(CSc1ccc(C(F)(F)F)cn1)N1CCc2c([nH]c3ccccc23)C1C(F)(F)F (configuration not stated),·,-0.4
CCC1=Nc2ccc(Br)cc2C(c2ccccc2)N1CC(=O)NN (configuration not stated),-12.0,-0.5
CCOC(=O)n1c(SCC)nc2ccccc21,-5.0,1.4

# Next entries follow:
SMILES,S aureus helic,MgrA DNA FP
CN(C)c1ccc(N=Cc2cccn2C)cc1,-1.0,1.9
O=C(Nc1ccccc1-c1nc2ccccc2s1)c1ccccc1[N+](=O)[O-],·,1.9
CN(C)c1ccc(C2Nc3cccc4cccc(c34)N2)cc1,·,4.4
CC1=CS(=O)(=O)CC1Sc1n[nH]c(C)n1 (configuration not stated),-2.0,0.7
Cc1ccccc1C(=O)NCC(=O)O,5.0,·
CN(CCC#N)S(=O)(=O)c1cn(C)c(=O)n(C)c1=O,-2.0,·
CCOC(=O)c1c(CN2CCCCC2C)n(C)c2cc(Br)c(OC(C)=O)cc12 (configuration not stated),14.0,·
O=C(NC1=NCCN1)c1c(Cl)cccc1Cl,·,6.8
COc1ccc(C(=O)NCC(=O)c2ccccc2)cc1,-5.0,0.9
COc1cc(/C(O)=C(\C#N)c2nc3ccccc3s2)cc(OC)c1OC,-7.0,·
O=C(NC(=S)NCC1COc2ccccc2O1)c1ccc(Cl)cc1 (configuration not stated),·,-1.4
Oc1oc(-c2ccccc2)nc1C1=Nc2ccccc2CC1,-18.0&-2.0,-0.8
Cc1cc(Cl)ccc1OCC(=O)OCC(=O)c1ccc(Cl)cc1,-8.0,-2.9
O=C(c1cccs1)N(c1ccccc1)C1C=CS(=O)(=O)C1 (configuration not stated),-1.0,·
NNC(=O)CNc1ccc2c(c1)OCO2,·,2.4
O=C1NC(=O)C(=CN2CCN(S(=O)(=O)c3ccc(Cl)cc3)CC2)C(=O)N1,2.0,·
CC1CC(C)CN(S(=O)(=O)c2ccc(F)c(C(=O)Nc3cccc(F)c3)c2)C1 (configuration not stated),-6.0,-0.7
CCN(CC)C(=S)Sc1ncnc2sc3c(c12)CCCC3,3.0,1.6
COCC(=O)NC(C)c1nc2ccccc2[nH]1 (configuration not stated),-2.0,·
CCN1Cc2cccc(C(=O)Nc3ccc(Br)cc3)c2C1=O,-1.0,·
CCOC(=O)c1[nH]c2c([N+](=O)[O-])cc(OCC)cc2c1CCN1C(=O)c2ccccc2C1=O,·,2.5
Cc1ccn2c(NC(=O)C(C)(C)Oc3ccc(Cl)cc3)c(-c3ccc(F)cc3)nc2c1,4.0,-0.1
Cc1ccc(NC(=S)NCc2ccncc2)c(C)c1,·,0.5
Cc1ccc(-c2noc(-c3ccc(Oc4cc(Cl)cc(Cl)c4)o3)n2)cc1,-16.0,·
CN(C)C(=O)COc1ncnc2sc3c(c12)CCC3,-1.0,·
Cn1c(C(=O)NC2CC2)cc2sccc21,1.0,·
Cc1ccsc1/C=C/C(=O)Nc1ccccc1C(F)(F)F,·,-1.6
COc1ccc(CC2SC(=Nc3ccccc3)NC2=O)cc1 (configuration not stated),·,3.3
O=C(Nc1n[nH]c(C(F)(F)F)n1)c1cccs1,6.0,·
O=C(CSc1ccc(Cl)cc1)NCC1CCCO1 (configuration not stated),-12.0,-1.2
c1ccc2c(c1)NC(C1Nc3ccccc3O1)O2 (configuration not stated),·,1.2
Nn1c(SC(C(=O)N2CCCCC2)c2ccccc2)nnc1C1CC1 (configuration not stated),-12.0,·
C=CCN(C(=O)c1noc2c1CCCC2)c1ccccc1,-11.0,·
Oc1ccccc1-c1cc(C(F)(F)F)n(-c2ccccc2)n1,2.0,-3.0
O=C(O)CC1(CC(=O)NCC(O)c2ccccc2)CCCC1 (configuration not stated),·,2.5
CCOC(=O)c1cc(CC)sc1NC(=O)C(Cl)Cl,·,-1.8
CC1=C(NS(=O)(=O)c2cccc(C(=O)O)c2)CN(c2ccccc2)N1C,9.0,·
CCC1CCCCN1C(=O)CSc1nc2ncccc2o1 (configuration not stated),-13.0,·
Cc1ccc(N2C(=O)CC(NCc3ccc(S(N)(=O)=O)cc3)C2=O)cc1Cl (configuration not stated),14.0,-0.6
CC(C)(C)C1CCc2c(sc(NC(=O)CSc3nnc(-c4ccncc4)o3)c2C#N)C1 (configuration not stated),-13.0,·
CCC(C)NC(=O)c1cnc2n(c1=O)CCS2 (configuration not stated),10.0,·
CC(SCc1ccccc1)C(=O)Nc1cccnc1 (configuration not stated),3.0,-7.1
CN(CCOC(=O)Nc1ccccc1)c1ccc(C#N)cn1,·,-0.2
Cc1cc(Cl)ccc1NC(=O)COC(=O)c1cccs1,8.0,0.4
O=C1CCCC2=C1C(c1ccc(Cl)cc1)c1c(ccc3ccccc13)N2 (configuration not stated),3.0,1.7
c1cnc2ccc(-c3ccc4ncccc4c3)cc2c1,19.0,·
CCOc1ccc(C2C(C#N)=C(SC)NC(=O)C2C(=O)OC)cc1 (configuration not stated),-16.0,·
O=C1C(=O)N(CCCN2CCOCC2)C(c2ccccc2F)/C1=C(\O)c1ccc2c(c1)OCCO2 (configuration not stated),4.0,5.5
CC(=O)OCC(=O)[C@@]12OC3(CCCC3)O[C@@H]1CC1C3CCC4=CC(=O)C=C[C@]4(C)[C@@]3(F)[C@@H](O)C[C@@]12C (some centres not stated),·,0.8
COc1cccc(OC)c1OC(=O)c1c(F)cccc1F,5.0,·
CCN=C1S/C(=C\c2cn(C(C)=O)nc2-c2ccccc2)C(=O)N1CC,10.0,-1.2
Cc1cc(C)c2oc(-c3cccc(NC(=O)c4cc(Br)ccc4Cl)c3C)nc2c1,·,0.2
COc1ccc(-c2cn3cccnc3n2)cc1NC(=O)C(C)C,15.0,-1.4
CCOC(=O)C1CCN(c2ccccc2CN2CCN(c3ncc(C(F)(F)F)cc3Cl)CC2)CC1,8.0,·
COc1cccc(OCC(=O)Nc2cccc(C(=O)O)c2C)c1,26.0,-3.1
COc1ccc2c(c1)-c1c(ssc1=Nc1ccc(S(N)(=O)=O)cc1)C(C)(C)N2,-47.0,·
COC(=O)C(=Nc1ccc(NC(C)=O)cc1)C(F)(F)F,-3.0,·
N#CCCC1CCCCCCCCCCC1O (configuration not stated),·,-0.8
Cc1cc2c(cc1C)NC(c1ccc(N(C)C)cc1)C1=C(CC(C)(C)CC1=O)N2 (configuration not stated),12.0,·
Oc1ccc(C2Oc3ccccc3C3CC(c4ccccc4O)=NN32)cc1 (configuration not stated),-12.0,·
# Other structures follow.
SMILES,S aureus helic,MgrA DNA FP
O=C(Nc1ccc(Br)cc1)C1(c2ccccc2)CCCC1,-1.0,-1.2
O=C(CSCc1cnn(-c2ccccc2)c1-n1cccc1)Nc1ccccc1Br,13.0,-0.2
O=c1occ(CO)c(O)c1CN1CCCCC1,6.0,-6.1
CC(Oc1cccc(Cl)c1)C(=O)N1CCCC1 (configuration not stated),5.0,-1.4
CNc1nnc(SCc2csc3ccccc23)s1,·,0.1
CC(CNC1CCN(C)CC1)c1ccccc1 (configuration not stated),12.0,1.9
CCOc1nc2cnccc2n(C(CC)C(=O)NC2CCCCC2)c1=O (configuration not stated),7.0,·
COCC(=O)Nc1ccc(C(C)C)cc1,·,1.0
S=C(Nc1ccc(Oc2ccccc2)cc1)NN1CCOCC1,15.0,4.8
Cc1ccc(N=Cc2ccc3ccccc3n2)cc1,-13.0,-3.0
COC(=O)C(C)Sc1nnc(Cc2cc(=O)[nH]c(=O)[nH]2)n1-c1cccc(C)c1 (configuration not stated),5.0,·
O=[N+]([O-])c1ccc(Oc2c(Cl)cccc2Cl)c(Cl)c1Oc1c(Cl)cccc1Cl,·,2.0
Cc1cccc(NC(=O)c2cccc(Cn3nc(C)c(Cl)c3C)c2)c1C,-13.0,-4.5
Cc1nc2ccccc2nc1CSc1nnc(C2COc3ccccc3O2)n1C (configuration not stated),-11.0,·
O=S(=O)(c1ccc(Cl)cc1)N(Cc1ccccn1)Cc1ccccn1,·,0.1
CCOc1ccc(CCNC(=O)Cc2noc3ccccc23)cc1,8.0,1.4
COc1cc(C=C2C(=O)N(C)C(=O)N(C)C2=O)ccc1OCCSc1ccc(C)cc1,·,0.6
Cc1ccc(Cn2ncc3c(N4CCC(C)CC4)ncnc32)cc1,-25.0,·
COCc1cc(C)nc(OCC(=O)N/N=C/c2cccnc2)c1C#N,-22.0,·
Cc1oc(-c2ccc(Cl)cc2)cc1C(=O)N1CCOCC1,·,-1.7
O=C(OCCOc1ccccc1)c1cc(=O)[nH]c2ccccc12,-5.0,·
CC(C(N)=O)N1C(=O)c2ccccc2C1=O (configuration not stated),-14.0,-0.3
CC(C)[C@H](NC(N)=O)C(=O)NCc1ccccc1,9.0,·
Cc1cc(C)c2cc(C(=O)N3CCc4ccccc4C3)[nH]c2c1,·,0.4
NNC(=O)CN1C(c2ccc(Cl)cc2)=Nc2ccc(Cl)cc2C1c1ccccc1 (configuration not stated),-12.0,-1.8
CN1CCN(c2cnn(-c3ccccc3)c(=O)c2Br)CC1,10.0,-1.2
CC(C)CC(C(=O)O)N1Cc2ccccc2C1=O (configuration not stated),·,-1.9
CCN(CC)c1ccc(C(=O)Nc2nc(-c3ccc(C)o3)cs2)cc1,5.0,·
CC(=O)N1c2ccccc2C(=O)C1Sc1nc(C)cc(-c2ccccc2)n1 (configuration not stated),-15.0,2.0
Nc1nonc1-c1nc2ccccc2n1CC(=O)N1CCCCC1,-35.0,·
CCn1c(=NC(=O)c2cccs2)sc2cc(Cl)ccc21,-1.0,·
COc1ccc(CCNC(=O)CSc2ccccn2)cc1,-24.0,1.6
c1ccc(Nc2cnccn2)cc1,11.0,-6.4
COc1ccccc1CNC(=O)C1CCN(S(=O)(=O)c2cccc3nonc23)CC1,-1.0,·
CCOC(=O)Cn1c(C)c(Sc2ccccc2)c2ccccc21,-6.0,1.7
O=C(O)C1CCCCC1C(=O)N1CC=C(c2ccccc2)CC1 (configuration not stated),2.0,·
O=C(NC1CCCCC1)C1c2ccccc2C(=O)N1C1CCCC1 (configuration not stated),9.0,·
CC(C)N(C(=O)CNc1cc(Cl)ccc1Cl)c1ccccc1,2.0,-1.0
CC(CC(=O)N1CCN(c2ccccn2)CC1)n1ccnc1 (configuration not stated),-4.0,·
COc1ccccc1N(CC(=O)Nc1sc2c(c1C(N)=O)CCC2)S(=O)(=O)c1cccs1,-11.0,·
O=C1CC(c2ccccc2)=NN1,·,-0.2
NCCN1C(=O)CSC1=O,20.0,-3.2
O=C(O)C1(c2ccc(O)cc2)CCCC1,-3.0,2.7
CC1(C)Cc2ccccc2/C(=C/C(=O)N2CCCCCC2)N1,2.0,-3.5
CC1/C(=N/O)CC(c2ccccc2)NC1c1ccccc1 (configuration not stated),6.0,·
O=C(c1ccc(Cl)cc1)N(Cc1ccc(Cl)cc1)C1CCS(=O)(=O)C1 (configuration not stated),-6.0,·
O=S(=O)(c1ccc(-n2cnnn2)cc1)N1CCCC2CCCCC21 (configuration not stated),10.0,-1.1
CC(=O)N1c2ccccc2C(=O)C1N1CCCCC1 (configuration not stated),-27.0,·
O=C1CCN(S(=O)(=O)c2cccc(S(=O)(=O)c3ccc(Cl)cc3)c2)C2CCCCC12 (configuration not stated),-1.0,-2.4
Cc1cc(N)n(N)c(=O)c1,13.0,·
CCSc1nc2ncnc(N)c2[nH]1,3.0,0.9
Cc1oc2ccccc2c1CNC(N)=O,·,0.2
CCC(=O)Nc1nnc(C(C)(C)C)s1,0.0,-0.2
O=C(CSc1ccc(F)cc1)OCCN1CCOCC1,0.0,·

# Source: PubChem (ICCB-Longwood Screening Facility, Harvard Medical School)

# An excerpt; rates above refer to the full screens.
